# From PubChem
# FGF22 binding = binders of human FGF22 protein, primary screen, FGF22 synaptogenesis inhibitor project, biophysical, thermal shift, single point. Fibroblast growth factor 22 (Homo sapiens), Q9HCT0. recombinant FGF22 thermal shift, SYPRO orange fluorescence; percent of sucrose octasulfate shift, DMSO zero. calls only at 9.99 µM. 340,000 compounds, 1.5% hits. AID 651658, 2012;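 active means melting point raised past a set limit in the mean and every replicate; inconclusive means no clear call; three in four hits are not shown here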
# MLL AF4-AF9 inh = inhibitors of AF4 peptide binding to AF9, primary screen, biochemical, AlphaScreen, biotin-AF4 peptide, FLAG-AF9, single point | inhibition, % at 10 µM | AID 651704, 2012 | Protein AF-9 (Homo sapiens), P42568 | 350,000 compounds, 0.47% hits;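 active means every replicate reaching a set inhibition limit, whatever the replicate mean, cut at about 25% in these data; inconclusive means mean inhibition reaches that limit but some replicates miss it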;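 further: 0% = plate neutral control median and 100% = total signal loss; the record names both 10 and 1 µM as test concentration; the first replicate is given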
# Target sequence (P42568 whole entry, looked up): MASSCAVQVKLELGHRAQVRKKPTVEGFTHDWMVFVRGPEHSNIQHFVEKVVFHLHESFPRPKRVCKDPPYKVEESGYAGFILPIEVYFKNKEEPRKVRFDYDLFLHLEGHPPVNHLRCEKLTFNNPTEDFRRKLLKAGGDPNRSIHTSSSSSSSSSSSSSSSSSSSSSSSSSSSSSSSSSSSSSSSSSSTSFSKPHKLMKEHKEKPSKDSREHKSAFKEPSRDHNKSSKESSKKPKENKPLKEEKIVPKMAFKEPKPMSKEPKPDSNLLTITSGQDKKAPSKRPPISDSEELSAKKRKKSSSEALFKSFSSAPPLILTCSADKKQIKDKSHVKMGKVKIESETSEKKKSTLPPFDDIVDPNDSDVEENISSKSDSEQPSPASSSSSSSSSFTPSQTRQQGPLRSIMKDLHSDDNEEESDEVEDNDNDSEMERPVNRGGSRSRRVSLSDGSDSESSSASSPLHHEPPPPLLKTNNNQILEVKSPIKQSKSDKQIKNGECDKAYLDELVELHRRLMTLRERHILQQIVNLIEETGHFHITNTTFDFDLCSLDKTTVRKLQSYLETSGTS
# HNF4A DNA FP = change in binding of human HNF4A to DNA, primary screen, biochemical, fluorescence polarization, FITC-DNA; activity change, % at 10 µM; Hepatocyte nuclear factor 4-alpha (Homo sapiens), P41235; 360,000 compounds, 0.3% hits; 1 h; in the data active means activity change above about 30%, passing the limit was not always enough;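 further: controls were the assay level and a saturating level of protein; the project sought stronger binding though the title names inhibitors; some compounds called inactive have numbers as strong as hits; positive values seem to mean higher polarization but the record does not say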
# Target sequence (P41235 whole entry, looked up): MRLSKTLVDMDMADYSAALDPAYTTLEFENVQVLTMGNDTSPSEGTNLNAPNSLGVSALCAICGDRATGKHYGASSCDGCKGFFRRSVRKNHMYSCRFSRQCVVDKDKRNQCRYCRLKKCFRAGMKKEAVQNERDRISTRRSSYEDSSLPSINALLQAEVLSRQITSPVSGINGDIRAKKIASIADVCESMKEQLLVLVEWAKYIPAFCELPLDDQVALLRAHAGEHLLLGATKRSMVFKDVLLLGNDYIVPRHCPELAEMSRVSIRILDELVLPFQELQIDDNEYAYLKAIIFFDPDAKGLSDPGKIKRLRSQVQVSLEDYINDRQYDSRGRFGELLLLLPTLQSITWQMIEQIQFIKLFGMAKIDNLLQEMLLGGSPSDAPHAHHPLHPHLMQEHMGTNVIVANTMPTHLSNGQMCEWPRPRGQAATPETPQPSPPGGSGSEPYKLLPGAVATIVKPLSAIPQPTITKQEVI
# Vif A3G = inhibitors of Vif binding to APOBEC3G peptide, primary screen, biochemical, TR-FRET, GST-Vif 1-94, biotin-A3G peptide, dose response retest (AID 1117319); TR-FRET GST-Vif / biotin-A3G peptide binding; higher % means a stronger effect; test concentration not given here; strong numbers were not always called active; Virion infectivity factor (Human immunodeficiency virus type 1 group M subtype B (isolate …; 260,000 compounds, 0.57% hits; inhibition, %, or IC50 in µM where a hit was titrated;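 active means above the screen mean plus three standard deviations and confirmed in dose response; inconclusive means results disagree or hit not tested in dose response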;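 further: Vif residues 1-94 fused to GST binding biotinylated APOBEC3G peptide 110-148; 0% = full assay without inhibitor and 100% = GST in place of GST-Vif; retest series ran down from 100 µM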
# Ecoli growth = E. coli growth inhibition, primary screen, OD600 | Escherichia coli growth, 23 h; hits give low values | OD600 absorbance (concentration not given with the values) | 330,000 compounds, 0.21% hits | AID 1053175, 2014;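 active means OD600 absorbance below the run mean of sample wells minus 3.6 SD, in any replicate, cut at about 0.56 in these data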;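 further: stock transfer was 300 nL into about 60 µL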
# Ecoli rRNA inh = reduced GFP signal of wild-type E. coli, primary screen, bacterial rRNA inhibitor project, GFP/RFP fluorescence, OD600, single point; E. coli WT GFP vs humanized-ribosome RFP mutants, 24 h; hits give low values; DMSO median 0, no signal -100; GFP signal change (wild-type ribosome), % (no concentration beside the values); 350,000 compounds, 1.6% hits;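 active means significant combined selectivity score with lowered wild-type GFP, culture density cut under 30%, mutant RFP and density less affected; inactive means any of these conditions unmet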; further: one replicate is shown; some compounds called inactive have numbers as strong as hits
# ALR inh = inhibitors of human ALR sulfhydryl oxidase, primary screen, biochemical, H2O2 detection, HRP-luminol luminescence, single point | FAD-linked sulfhydryl oxidase ALR (Homo sapiens), P55789 | purified ALR, DTT oxidation | inhibition, % (no concentration beside the values) | 290,000 compounds, 3.8% hits;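 active means mean and each replicate at 75% or more; inconclusive means only one of the two met; inactive means neither met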;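 further: stock transfer was 7.5 nL into about 7.5 µL; 0% = neutral wells and 100% = wells with inactivated enzyme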
# Ecoli rRNA inh OD600 = also measured in Ecoli rRNA inh; calls as there; OD600 change, %; measured here: OD600 growth;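 optical density of the mix in the first replicate; 0 = DMSO median and -100 = no signal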
# Ecoli rRNA inh RFP = second read-out of Ecoli rRNA inh, no call of its own (marks repeat the call); RFP signal change, %; measured here: RFP humanized mutant strains;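 first replicate; 0 = DMSO median and -100 = no signal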
# * = called active by the depositor; i = inactive; ? = inconclusive; / = no result given; & = joins results of further samples. Some of the compounds tested. The share of hits here may be higher or lower than overall.
SMILES,FGF22 binding,MLL AF4-AF9 inh,HNF4A DNA FP,Vif A3G,Ecoli growth,Ecoli rRNA inh,Ecoli rRNA inh OD600,Ecoli rRNA inh RFP,ALR inh
CCc1nc(N2CCN(C(=O)c3ccccc3)CC2)c2c3c(sc2n1)CCCC3,/,0.2,1.4,3%,0.72,-20,-21,23,0
CC(C)NC(=O)N1[C@H](CO)[C@@H]2c3ccccc3N(C(=O)C3CCCCC3)C[C@@H]21,i,-0.6,/,/,/,3,0,0.6,/
C/C(=N/NC(=O)c1ccoc1C)c1ccc(NC(=O)C2CCCC2)cc1,i,1.0,0.6,10%,/,0,8,-5.2,21
O=C(O)c1ccc(NCCc2ccc(Cl)cc2)c([N+](=O)[O-])c1,i,1.4,-4.4,-2%,0.69,-23,-39,-7.5,0
COc1ccc(C(=O)Nc2ccc(/C(C)=N/NC(=O)c3ccccc3O)cc2)cc1OC,i,3.8,3.3,/,/,6,-1,-5.1,/
CCn1c2ccc(CC(=O)O)cc2c2cc(CC(=O)O)ccc21,/,/,1.4,11%,0.69,/,/,/,-28
Cc1ccccc1NC(=O)Cc1nnc(SCC(=O)NC2CCCC2)n1C,i,-0.8,2.8,/,0.67,15,18,2.1,-3
C/C(=N\Nc1ccc(S(=O)(=O)N2CCCCC2)cn1)c1cccc(Br)c1,i,9.5,1.4,3%,/,5,-9,-1.9,0
CCN(CC)S(=O)(=O)c1cc(NC(=O)COC(=O)C2CCC2)ccc1C,i,-1.1,1.3,-7%,0.68,1,-1,-2.8,0
Cc1ccc(CNC(=O)c2nccnc2C(=O)O)cc1,i,-1.3,2.6,/,0.65,13,2,4.3,-6
Cc1ccc(NC(=O)CSc2nc(-c3ccco3)nc3cc(=O)[nH]n23)c(Cl)c1,i,-2.3,-9.4,/,0.65,6,15,2.3,99*
O=C(O)CC12CC3CC(C1)CC(n1ncc(NCc4ccc5c(c4)OCO5)c(Cl)c1=O)(C3)C2,/,/,/,11%,0.68,/,/,/,-15
CC1(c2ccccc2)NC(=O)N(CC(=O)Nc2nnc(C3CC3)s2)C1=O (centres undefined),i,0.8,0.6,/,0.71,0,-1,-1.9,-4
CCc1ccc(-c2csc(NC(=O)C3CC(=O)N(c4ccc5c(c4)OCCO5)C3)n2)cc1 (centres undefined),i,0.5,0.2,/,0.73,/,/,/,0
COc1ccc(NC(=O)c2cc(S(=O)(=O)N3CCOCC3)cn2C)cc1Cl,i,-1.4,-2.3,/,0.68,-4,-7,4.0,-12
CNC[C@@H]1Oc2c(NS(=O)(=O)c3cn(C)cn3)cccc2C(=O)N([C@@H](C)CO)C[C@H]1C,i,-4.4,/,/,/,2,3,1.2,/
COc1cc(CN2CCC(C(=O)NCCC(C)C)CC2)ccc1OCc1ccccc1,/,-7.9,1.6,/,0.71,-1,-18,19,-3
OC[C@@H]1[C@@H](c2ccc(C#Cc3cccnc3)cc2)[C@@H]2CN(Cc3ccccc3F)CCCCN12,i,0.2,/,/,/,-5,-47,25,/
CC(=O)c1ccc(CCCCCCCCCC(=O)O)s1,/,-2.8,-8.7,-21%,0.72,/,/,/,5
O=C1c2ccccc2C(Nc2ccc3c(c2)OCCO3)N1c1ccc(Cl)cn1 (centres undefined),i,5.8,-3.0,1%,0.74,-13,-19,-6.8,-32
N#CCCN1CCN(CCC#N)c2ccccc21,i,-6.4,-2.8,-7%,0.69,43,8,3.3,/
O=C(O)c1ccc(NC(=S)NC(=O)c2cccc(COc3ccccc3)c2)cc1,/,-2.4,1.8,/,0.69,-53,-76,-21,97*
O=c1cc(N2CCc3ccccc3C2)[nH]c(=O)n1-c1ccc(Br)cc1,i,5.9,-0.7,-3%,0.74,4,0,4.5,/
COc1ccccc1N1CCN(C(=O)C2CC2)CC1,i,-11,1.5,/,0.67,31,15,1.4,24

# Whole records, quoted from the list. Screens in order: FGF22 binding	MLL AF4-AF9 inh	HNF4A DNA FP	Vif A3G	Ecoli growth	Ecoli rRNA inh	Ecoli rRNA inh OD600	Ecoli rRNA inh RFP	ALR inh
# Results for CCc1ccc(-c2csc(NC(=O)C3CC(=O)N(c4ccc5c(c4)OCCO5)C3)n2)cc1 (centres undefined) : i	0.5	0.2	/	0.73	/	/	/	0
# Results for O=C(O)CC12CC3CC(C1)CC(n1ncc(NCc4ccc5c(c4)OCO5)c(Cl)c1=O)(C3)C2 : /	/	/	11%	0.68	/	/	/	-15
# Results for CNC[C@@H]1Oc2c(NS(=O)(=O)c3cn(C)cn3)cccc2C(=O)N([C@@H](C)CO)C[C@H]1C : i	-4.4	/	/	/	2	3	1.2	/

# Next part:
SMILES,FGF22 binding,MLL AF4-AF9 inh,HNF4A DNA FP,Vif A3G,Ecoli growth,Ecoli rRNA inh,Ecoli rRNA inh OD600,Ecoli rRNA inh RFP,ALR inh
COc1cccc(Nc2cc(C)c3ccccc3n2)c1,i,2.4,2.8,-5%,0.58,-23,-54,6.6,3
CCOc1ccc2[nH]c(SCC(=O)OC)c([N+](=O)[O-])c2c1,i,0.4,-2.4,7%,0.71,9,16,-1.6,/
Cc1ccc(N(CC(=O)NC2CCCC2)C(=O)c2c(C)noc2C)cc1C,/,/,-4.5,0%,0.71,/,/,/,/
C#Cc1ccc(CN2CCCC(C(=O)Nc3ccccc3Oc3cccnc3)C2)cc1 (centres undefined),i,3.8,5.5,/,/,-24,-14,0.7,7
O=c1c2ccccc2nc(SCc2cn3ccsc3n2)n1-c1ccc(F)cc1,/,/,-2.1,27%,0.75,/,/,/,13
COC(=O)C1=C(C)N(Cc2ccc(OC)c(OC)c2)C(=O)C1,/,/,0.3,8%,0.73,/,/,/,44
CN(c1ccc(F)cc1)S(=O)(=O)c1ccc(Cl)c(C(=O)OCC(=O)NCc2ccco2)c1,i,1.8,-0.5,/,0.68,-28,-27,-1.0,-1
COc1ccc(OCc2nnc(SCC(=O)N(C)Cc3ccccc3)n2N)cc1,i,-1.0,3.2,-6%,0.71,8,13,3.6,-18
CNC(=O)/C(C#N)=C\c1ccc(CNS(=O)(=O)c2ccc(Cl)cc2)o1,i,-1.7,1.4,?,0.7,8,6,1.8,-39
Cc1ccc(C2=NN(CC(=O)NCCN(C)C)C(=O)CC2)cc1,i,-5.9,1.8,6%,0.64,7,6,-0.3,-8
CC(C)CC(OC(=O)c1ccco1)C(=O)NC1CCCCC1 (centres undefined),/,/,0.5,?,0.66,/,/,/,/
CN(CC(=O)Nc1ccccc1Br)C(=O)CN1CCN(Cc2cccc(Cl)c2)CC1,i,0.9,-0.6,-7%,0.64,-3,-6,2.9,/
COC(=O)CCC(=O)N1CCC(Oc2cccc(C(=O)NCc3ccccn3)c2)CC1,i,-3.4,5.0,/,/,15,20,3.7,/
Cc1cc(C)n(-c2nc3c(c(=O)[nH]c(=O)n3C)n2CC(C)C)n1,/,/,3.1,-1%,0.76,/,/,/,-11
Cc1ccc(NS(=O)(=O)c2cccc(C(=O)Nc3cccnc3)c2)c(C)c1,i,0.1,-3.0,-8%,0.7,-45*,-33*,-2.1*,1
CCN(CC)C(=O)[C@H]1C[C@H](CC(=O)NCCCN(C)C)C(=O)N2CCc3c([nH]c4cc(-c5ccco5)ccc34)[C@]12C,i,20,-2.0,/,0.71,8,2,6.0,/
COc1ccc(Cl)cc1S(=O)(=O)Nc1ccc(Cl)cn1,i,-0.8,-1.5,6%,0.7,4,1,-1.8,-12
Cc1c(C(=O)N2CCCC2)sc(NC(=O)c2ccc(Cl)cc2)c1C#N,/,/,0.9,/,0.67,/,/,/,7
CSc1nc2nc(C)c(CCC(=O)OCC(=O)Nc3ccc(F)cc3)c(C)n2n1,i,-0.9,2.3,-15%,0.61,12,4,1.1,/
O=C(NCc1ccc(F)cc1)c1cc(C2CCCCN2S(=O)(=O)c2cccs2)on1 (centres undefined),i,1.2,1.9,/,/,-5,-12,1.2,/
O=C(NCc1ccccc1)c1cccc(COc2cc(Cl)ccc2Cl)c1,i,-10,-2.5,/,0.7,-5,11,9.5,/
CCCNC(=O)C[C@H]1CC[C@@H]2[C@H](COC[C@@H](O)CN2C(=O)Nc2ccc3c(c2)OCO3)O1,i,1.3,/,/,/,5,17,-1.6,/
O=C(CN(Cc1ccco1)C(=O)CNS(=O)(=O)c1ccc(Cl)cc1)NCc1ccco1,i,-16,1.6,/,0.68,1,4,-0.6,-7
CCOc1ccc(-c2cc(N)n(S(=O)(=O)c3cccc4nsnc34)n2)cc1,i,8.3,1.0,3%,0.72,-2,-5,1.3,-1
CC1=NN(c2ccccc2)C(=O)/C1=C\c1c(C)[nH]n(-c2ccccc2)c1=O,/,/,-0.7,-2%&0%,0.7,/,/,/,-1
O=C(Nc1c(Cl)cccc1Cl)c1cc(-c2ccco2)on1,i,-0.2,2.3,-2%,0.72,-13,-30,-3.3,-3
C[C@@H]1CCCCO[C@@H](CN(C)Cc2ccc3c(c2)OCO3)[C@@H](C)CN([C@H](C)CO)C(=O)c2cc(NC(=O)C3CCCCC3)ccc2O1,i,-4.8,/,/,/,3,2,2.2,/
COc1ccccc1CNC(=O)CN1C(=O)NC2(CCCc3ccccc32)C1=O (centres undefined),i,0.6,-4.1,4%,0.67,-9,-6,-2.8,/
O=C(CC1C(=O)NCCN1Cc1cccc(Oc2ccccc2)c1)NCCc1ccccn1 (centres undefined),i,-0.8,-5.1,/,0.68,-4,-7,2.5,3
CC1C(=O)Nc2ccc(S(=O)(=O)N3CCc4ccccc4C3)cc2NC1=O (centres undefined),i,-0.1,2.8,-5%,0.67,7,4,1.4,/
CCOC1=C2CN(S(=O)(=O)c3ccc(Cl)cc3)[C@H](c3ccccc3)C[C@@H]2N(S(=O)(=O)c2ccc(C)cc2)[C@H](c2ccccc2)C1,i,-1.5,-0.7,/,/,1,12,-3.0,/
CCOc1ccc(N2CC(O)=C(c3nc4ccccc4c(=O)[nH]3)C2=N)cc1,i,-2.9,24,-7%,0.7,17,14,-1.1,2
O=C(NCCN1CCN(C(=O)c2ccc(Br)cc2)CC1)c1ccc(Br)cc1,i,0.7,-0.5,/,0.67,-15,-4,5.1,0
O=C(CN(C(=O)c1cc2c(s1)CCC2)C1CCCC1)NCc1cccs1,/,/,0.4,72%,0.75,/,/,/,-2
CCCCOc1nc2c(c(=O)n(C)c(=O)n2C)n1C,i,0.3,-5.0,4%,0.62,3,6,1.1,-29
COc1ccc(N/C=C/C(=O)c2ccc(OC)c(OC)c2)cc1,i,0.8,4.4,-5%,0.67,3,10,-2.2,-5
O=C(c1ccco1)N1N=C2CCCCCC2C1(O)C(F)(F)F (centres undefined),i,-1.8,2.4,3%,0.69,17,2,2.3,-2
Cc1ccnc(NS(=O)(=O)c2ccc(-n3cccn3)cc2)c1,i,2.0,3.5,-7%,0.71,-6,-1,-4.1,2
O=C(/C=C/c1ccc(Cl)cc1)NC1CC2CCC1C2 (centres undefined),i,0.7,4.1,-5%,0.66,-50,-73,-12,1
COc1ccc(S(=O)(=O)Nc2ccc3c(c2)C(=O)N(C)C[C@@H](OC)[C@H](C)CN(C)[C@H](C)CO3)cc1,i,-1.4,/,/,/,0,-1,0.9,/
